Screening results: PubChem, Broad Institute
Ecoli rRNA inh – reduced GFP signal of wild-type E. coli, primary screen, bacterial rRNA inhibitor project, GFP/RFP fluorescence, OD600, single point. GFP signal change (wild-type ribosome), % (concentration not given with the values). actives 1.6% (n = 350,000). AID 720706, 2013. E. coli WT GFP vs humanized-ribosome RFP mutants, 24 h; hits give low values; DMSO median 0, no signal -100;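 active means significant combined selectivity score with lowered wild-type GFP, culture density cut under 30%, mutant RFP and density less affected; inactive means any of these conditions unmet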; further: one replicate is shown; some compounds called inactive have numbers as strong as hits
Ecoli rRNA inh OD600 – second read-out of Ecoli rRNA inh, no call of its own (marks repeat the call); OD600 change, %; measured here: OD600 growth;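 optical density of the mix in the first replicate; 0 = DMSO median and -100 = no signal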
Ecoli rRNA inh RFP – recorded beside Ecoli rRNA inh, whose call it bears; RFP signal change, %; measured here: RFP humanized mutant strains;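 first replicate; 0 = DMSO median and -100 = no signal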
* hit, by the source's call; & = joins results of further samples.

SMILES	Ecoli rRNA inh	Ecoli rRNA inh OD600	Ecoli rRNA inh RFP
CCCNC(=O)N(C)C[C@H]1Oc2cc(-c3ccccc3)ccc2S(=O)(=O)N([C@@H](C)CO)C[C@H]1C	-5	0	-0.1
C[C@H]1CCCCO[C@H](CN(C)CC2CCCCC2)[C@@H](C)CN([C@@H](C)CO)C(=O)c2cc(NS(=O)(=O)c3ccccc3)ccc2O1	4	-2	-0.3
CN(C)CC(=O)Nc1ccc2c(c1)[C@H]1C[C@H](CC(=O)NC3CCCCC3)O[C@@H](CO)[C@H]1O2	1	-5	2.2
CN1C(=O)c2cc(NC(=O)NC3CCCC3)ccc2OC[C@H]2O[C@@H](CC(=O)NC3CCC3)CC[C@@H]21	0	1	-1.2
C[C@@H]1CN([C@H](C)CO)C(=O)Cc2cc(NC(=O)Cc3ccccc3)ccc2O[C@@H]1CN(C)S(=O)(=O)c1ccccc1	-1	-4	3.3
COCC#Cc1ccc([C@H]2[C@@H](CO)N3C(=O)CN(C(=O)Nc4ccc(F)cc4)C[C@H]23)cc1	3	8	0.3
Cc1noc(C)c1S(=O)(=O)Nc1ccc2c(c1)CC(=O)N([C@H](C)CO)C[C@H](C)[C@@H](CN(C)C(=O)NC(C)C)O2	1	3	-1.0
COc1ccc(C#Cc2ccc3c(c2)[C@H]2[C@H](CCN2Cc2ccncc2)[C@@H](CO)N3)cc1	5	-4	1.8
CCC(c1nc2ccccc2[nH]1)N(C(=O)C1=NNC(=O)CC1)c1ccccc1 (stereo unspecified)	1	8	-0.7
C[C@H](CO)N1C[C@H](C)[C@@H](CN(C)S(=O)(=O)c2cccs2)OCc2ccccc2-c2ccccc2C1=O	0	1	1.1
C[C@@H]1CN([C@H](C)CO)C(=O)c2cccc(NC(=O)NC3CCCCC3)c2O[C@@H]1CN(C)Cc1ccc2c(c1)OCO2	-2	-2	0.6
O=C(C[C@H]1CC[C@H]2[C@@H](COC[C@@H](O)CN2CC2CCCCC2)O1)NCc1ccc(F)cc1	-24	-63	-3.6
Cc1noc(C)c1S(=O)(=O)N(C)C[C@H]1Oc2ccc(N(C)C)cc2C(=O)N([C@H](C)CO)C[C@@H]1C	-1	2	0.7
CCCCCC(=O)N1C[C@@H](n2cc(-c3ccc(F)cc3)nn2)[C@H](O)C[C@@H]1c1ccc(C)cc1	-17	-42	7.9
COCCNC(=O)C1(C)Cc2c(-c3ccc4c(c3)OCO4)ccnc2O1 (stereo unspecified)	21	20	0.5
C[C@H]1CN([C@@H](C)CO)C(=O)c2ccccc2-c2ccccc2CO[C@H]1CN(C)Cc1cccnc1	1	2	0.5
C[C@H]1CN([C@@H](C)CO)C(=O)c2cccc(NC(=O)c3nc4ccccc4s3)c2O[C@H]1CN(C)C(=O)Nc1ccccc1	-3	-4	-1.5
Cc1noc(C)c1S(=O)(=O)N(C)C[C@H]1OCCCC[C@@H](C)Oc2ccc(NC(=O)Cc3ccccc3)cc2C(=O)N([C@@H](C)CO)C[C@H]1C	-2	-8	-0.1
CN(C)C(=O)C[C@H]1C[C@H]2c3cc(NC(=O)C4CCC4)ccc3O[C@H]2[C@@H](CO)O1	1	3	-1.0
CC=Cc1ccc2n(c1=O)C[C@@H]1[C@@H](CO)[C@H](C(=O)NCCc3ccncc3)[C@H]2N1CCc1ccccc1 (mixture of isomers)	2	1	-0.1
O=C(NCc1ccc(F)cc1)[C@@H]1[C@@H](CO)[C@@H]2Cn3c(cccc3=O)[C@H]1N2CC1CC1	0	2	-0.2
CCC(=O)N1CCCC(C)(C(=O)Nc2nccc3cccnc23)C1 (stereo unspecified)	-2	0	0.3
CCC(=O)N1CC2(C1)[C@H](c1ccccc1)[C@@H](CO)N2Cc1cccc(Cl)c1	2	5	-2.8
Cc1ccc(CC2(C)C(=O)Nc3c(Cl)cccc32)cc1 (stereo unspecified)	-17	-46	-1.6
Cc1ccc(S(=O)(=O)N(C)C[C@@H]2Oc3ccc(NS(C)(=O)=O)cc3C(=O)N([C@@H](C)CO)C[C@@H]2C)cc1	0	1	-0.6

Further compounds.
SMILES	Ecoli rRNA inh	Ecoli rRNA inh OD600	Ecoli rRNA inh RFP
O=C(Nc1ccc(F)cc1)N1CCCCN2[C@H](C1)[C@H](c1ccc(C#Cc3ccccc3)cc1)[C@@H]2CO	2	-12	4.9
S=C(NCCCc1cnc[nH]1)NCCCN(Cc1ccc(Cl)c(Cl)c1)c1ccc(Br)cn1	-52	-79	-4.5
CCC(=O)N[C@@H]1CC[C@@H](CCn2cc(-c3cccc(OC)c3)nn2)O[C@@H]1CO	2	-1	-1.4
C[C@@H](NC(=O)C[C@@H]1C=C[C@H](NC(=O)Cc2ccccn2)[C@@H](CO)O1)c1ccccc1	1	3	1.3
O=C1CNC[C@H]2[C@H](c3ccc(C#CC4CCCCC4)cc3)[C@H](CO)N12	2	1	1.6
O=C(C[C@@H]1CC[C@H]2[C@@H](COC[C@H](O)CN2Cc2cc(F)ccc2F)O1)N1CCc2ccccc2C1	-10	-20	1.6
Cc1ccccc1-c1ccc([C@H]2[C@H]3CN(C(=O)Nc4ccc(F)cc4)CCCCN3[C@H]2CO)cc1	-6	-43	28
Cc1noc(C)c1NC(=O)N1C[C@H](O)COC[C@H]2O[C@@H](CC(=O)NCC3CCCCC3)CC[C@@H]21	4	4	-11
COc1ccccc1C(=O)NCCC(=O)NCCOc1ccc(C)cc1	-11	-11	-4.9
CCN1C(=O)[C@H]2[C@@H](c3ccc(OC)cc3)N[C@]3(CCCN(Cc4ccc(C)cc4)C3=O)[C@H]2C1=O	5	-1	-1.5
N#C[C@@H]1[C@@H](c2ccccc2-c2ccccc2)[C@H](CO)N1C(=O)NC1CCCCC1	-10	-27	1.3
COc1ccc(S(=O)(=O)Nc2ccc3c(c2)CC(=O)N([C@@H](C)CO)C[C@@H](C)[C@H](CN(C)Cc2ccc(Oc4ccccc4)cc2)O3)cc1	2	5	4.0
CN1C(=O)c2cc(NC(=O)c3cccs3)ccc2OC[C@H]2O[C@@H](CC(=O)O)CC[C@H]21	-3	-4	-1.5
CC(C)C#Cc1cnc2c(c1)C(=O)N([C@@H](C)CO)C[C@@H](C)[C@H](CN(C)C(=O)c1cccnc1)O2	1	10	-1.7
C[C@@H]1CN([C@@H](C)CO)C(=O)c2cc(NC(=O)C3CC3)ccc2O[C@H]1CN(C)C(=O)Nc1ccccc1	0	5	-1.8
O=C(Cc1ccccc1F)Nc1cccc(S(=O)(=O)N2CCCCC2)c1	9	-25	-1.7
COc1ccccc1CN1[C@@H]2CNC[C@H]1C2c1ccc(-c2cccc(C#N)c2)cc1 (stereo partly specified)	-7&8	-8&10	5.0&0.0
CC(C)CC#Cc1ccc2c(c1)O[C@@H](CN(C)S(=O)(=O)c1cccc(F)c1)[C@H](C)CN([C@H](C)CO)S2(=O)=O	-2	0	1.1
CCOC(=O)N(C)c1c(CC)nc2c(OCc3ccc(Cl)cc3)cccn12	4	-15	4.6
Cc1noc(C)c1NC(=O)N[C@@H]1CC[C@H](CCNC(=O)C2CC2)O[C@H]1CO	1	-4	-3.2
C[C@@H]1CN([C@H](C)CO)C(=O)c2cccc(NC(=O)C3CCOCC3)c2O[C@H]1CN(C)Cc1ccc(C(=O)Nc2ccccc2N)cc1	0	-4	-1.3
CCCNC(=O)N(C)C[C@H]1Oc2cc(-c3ccc(C)cc3)ccc2S(=O)(=O)N([C@H](C)CO)C[C@@H]1C	-6	-16	2.7
Cc1ccc(S(=O)(=O)Nc2cccc3c2O[C@@H](CN(C)CC2CCCCC2)[C@@H](C)CN([C@@H](C)CO)C3=O)cc1	0	-3	0.3
Cc1noc(C)c1S(=O)(=O)Nc1ccc2c(c1)CC(=O)N([C@@H](C)CO)C[C@@H](C)[C@@H](CN(C)Cc1ccccc1)O2	0	0	-3.4
C[C@@H]1CN([C@H](C)CO)S(=O)(=O)c2ccc(-c3cccnc3)cc2O[C@@H]1CN(C)C(=O)CC1CC1	0	6	-1.9

Other records follow:
SMILES	Ecoli rRNA inh	Ecoli rRNA inh OD600	Ecoli rRNA inh RFP
COc1ccc(S(=O)(=O)Nc2ccc3c(c2)CC(=O)N([C@@H](C)CO)C[C@H](C)[C@@H](CN(C)S(=O)(=O)c2ccc(C)cc2)O3)cc1	-5	-2	1.1
CN1C(=O)c2cc(NC(=O)c3cscn3)ccc2OC[C@H]2O[C@@H](CC(=O)N3CCCCC3)CC[C@@H]21	2	-8	0.0
CNC[C@H]1Oc2ccc(NC(=O)Nc3cccc4ccccc34)cc2CC(=O)N([C@H](C)CO)C[C@@H]1C	-1	-1	-0.1
OCCN1CCN(c2cc(-c3ccc4ccccc4c3)nc3ccnn23)CC1	-8	18	4.1
COc1ccc(-c2ccc3c(c2)[C@@H]2[C@@H](CCN2S(=O)(=O)c2ccccc2F)[C@@H](CO)N3)cc1	-5	10	-2.6
C[C@@H]1CCCCO[C@@H](CN(C)S(=O)(=O)c2cccs2)[C@H](C)CN([C@H](C)CO)C(=O)c2cc(NC(=O)C3CCCCC3)ccc2O1	-4	-10	-2.2
O=C(c1cccnc1)N1C[C@@H]2[C@H](c3ccccc31)[C@@H](CO)N2C(=O)CN1CCOCC1	1	2	-0.3
CCNC(=O)C[C@H]1CC[C@@H]2[C@H](COC[C@H](O)CN2C(=O)C2CCCC2)O1	0	2	1.0
CNC[C@@H]1OCCCC[C@@H](C)Oc2ccc(N(C)C)cc2C(=O)N([C@H](C)CO)C[C@@H]1C	3	-1	-2.7
CCCCNc1ccc2c(c1)OC[C@@H](C)NS2(=O)=O	7	17	7.1
COc1ccc(S(=O)(=O)N(C)C[C@@H]2Oc3ccc(NS(=O)(=O)c4cccs4)cc3C(=O)N([C@H](C)CO)C[C@H]2C)cc1	-1	-1	-0.4
CCCCCNC(=O)C(c1cccc2ccccc12)n1c(=O)c(-c2cc3ccccc3[nH]2)nc2ccccc21 (stereo unspecified)	8	5	2.2
CC(=O)Nc1ccc(-c2ccnc3c2CC(C)(C(=O)NCc2ccc(N4CCN(C)CC4)cc2)O3)cc1 (stereo unspecified)	5	17	-1.0
CC(C)C#Cc1cnc2c(c1)C(=O)N([C@H](C)CO)C[C@@H](C)[C@H](CN(C)C(=O)Nc1ccccc1F)O2	0&3	16&-1	-2.8&-4.8
C[C@H]1CN([C@@H](C)CO)C(=O)c2cc(N(C)C)ccc2O[C@H]1CN(C)Cc1ccc(C(=O)Nc2ccccc2N)cc1	-1	-2	0.3
C[C@@H]1CN([C@@H](C)CO)C(=O)c2cc(NS(=O)(=O)c3cccs3)ccc2O[C@H]1CN(C)S(=O)(=O)c1cn(C)cn1	3	6	-1.3
C[C@H]1CN([C@@H](C)CO)C(=O)c2cc(C#CC(C)(C)O)cnc2O[C@@H]1CN(C)C(=O)C1CCC1	9	18	-2.3
CCC(=O)N(C)C[C@H]1Oc2ncc(-c3ccc(F)cc3)cc2C(=O)N([C@@H](C)CO)C[C@H]1C	2	-5	-0.4
COc1ccc2c3c([nH]c2c1)[C@@H](CO)N(C(=O)c1ccncc1)CC31CCN(C(=O)Nc2cccc(F)c2)CC1	-4	-5	-2.2
CCN1[C@@H]2c3ccc(-c4ccc(OC)cc4)c(=O)n3C[C@@H]2[C@@H](CO)[C@@H]1C(=O)NC1CCC1	1	-2	1.0
CCc1c(-c2ccccc2Br)ncn1CCc1ccccc1OC	-52	-79	-15
CC(C)[C@@H](C)/C=C/[C@@H](C)[C@H]1CC[C@@H]2[C@]1(C)CCC1[C@]23C=C[C@]2(C[C@@H](O)CC[C@]12C)N(c1ccc(F)cn1)O3 (stereo partly specified)	6	11	2.9
C[C@@H]1CN([C@H](C)CO)C(=O)c2cc(NS(=O)(=O)c3ccc(F)cc3)ccc2O[C@@H]1CN(C)CC1CCCCC1	-1	1	-1.4
CNC[C@H]1OCCCC[C@@H](C)Oc2ccc(NC(=O)CCC(F)(F)F)cc2C(=O)N([C@@H](C)CO)C[C@H]1C	5	5	0.4
CN(N=Cc1ccccc1)C(=S)Nc1ccccc1	-3	-4	-2.9
CN1C(=O)c2cc(NC(=O)c3cccs3)ccc2OC[C@@H]2O[C@H](CC(=O)N3CCOCC3)CC[C@H]21	2	8	-3.0
N#Cc1ccc(S(=O)(=O)N2CCCc3nc(-c4ccc(F)cc4)ccc32)cc1	9	8	-1.4

Ordered by formula weight (ascending): ten of the compounds above
SMILES	Ecoli rRNA inh	Ecoli rRNA inh OD600	Ecoli rRNA inh RFP
COCCNC(=O)C1(C)Cc2c(-c3ccc4c(c3)OCO4)ccnc2O1 (stereo unspecified)	21	20	0.5
CCNC(=O)C[C@H]1CC[C@@H]2[C@H](COC[C@H](O)CN2C(=O)C2CCCC2)O1	0	2	1.0
CCC(=O)N[C@@H]1CC[C@@H](CCn2cc(-c3cccc(OC)c3)nn2)O[C@@H]1CO	2	-1	-1.4
COc1ccccc1CN1[C@@H]2CNC[C@H]1C2c1ccc(-c2cccc(C#N)c2)cc1 (stereo partly specified)	-7&8	-8&10	5.0&0.0
CCN1[C@@H]2c3ccc(-c4ccc(OC)cc4)c(=O)n3C[C@@H]2[C@@H](CO)[C@@H]1C(=O)NC1CCC1	1	-2	1.0
CN1C(=O)c2cc(NC(=O)c3cscn3)ccc2OC[C@H]2O[C@@H](CC(=O)N3CCCCC3)CC[C@@H]21	2	-8	0.0
CC(C)[C@@H](C)/C=C/[C@@H](C)[C@H]1CC[C@@H]2[C@]1(C)CCC1[C@]23C=C[C@]2(C[C@@H](O)CC[C@]12C)N(c1ccc(F)cn1)O3 (stereo partly specified)	6	11	2.9
C[C@H]1CN([C@@H](C)CO)C(=O)c2cc(N(C)C)ccc2O[C@H]1CN(C)Cc1ccc(C(=O)Nc2ccccc2N)cc1	-1	-2	0.3
Cc1noc(C)c1S(=O)(=O)Nc1ccc2c(c1)CC(=O)N([C@H](C)CO)C[C@H](C)[C@@H](CN(C)C(=O)NC(C)C)O2	1	3	-1.0
C[C@@H]1CN([C@@H](C)CO)C(=O)c2cc(NS(=O)(=O)c3cccs3)ccc2O[C@H]1CN(C)S(=O)(=O)c1cn(C)cn1	3	6	-1.3

The list is partial; rates above refer to the full screens.
